Source: PubChem
CSC inhib: blocks cancer stem cells | inhibition, % at 7.5 µM | AID 2717 | cancer stem cell-like cells viability, luminescence | 300,000 tested, 1.1% active;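 active means mean at 75% or more and at least half the replicates too; inconclusive means mean and replicates disagree; tested in HMLE shEcad cells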;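 further: 0% = median of negative and 100% = median of positive control wells; the first replicate is given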
eIF4H inh: inhibitors of RNA binding by human eIF4H. AID 2012. Q15056. inhibition, % at 35 µM. eIF4H fluorescence polarization binding assay. 290,000 tested, 0.94% active;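 active means 50% or more with normal probe brightness, or confirmed in later tests; inconclusive means above 50% with abnormal brightness, or retests that disagree; inactive means below 50% or failed in later tests; about a fifth of its hits are not listed in these tables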;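 further: calls also rest on retests at 20 µM and on dose response follow-up; 0% = protein and probe with vehicle and 100% = probe without protein; strong numbers were not always called active; many hits fall short of the cut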
HIV Env fusion: blocks HIV Env-driven cell-cell fusion. HeLa-JRFL Env/CEM21 cell fusion, luciferase. inhibition, % at 12.3 µM. 360,000 tested, 1.1% active. AID 651610;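 active means mean replicate inhibition score of at least 50 and every replicate individually at or above 50; inconclusive means only one of the two criteria met; inactive means mean below 50 and not all replicates reaching 50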;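 further: 0% = plate neutral controls and 100% = maraviroc near 300 nM; one replicate is shown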
UUG fidelity: yeast start codon fidelity modulation; S. cerevisiae UUG-firefly luciferase reporter, luminescence/redox ratio; activity score, % at 18.7 µM; AID 602363; 350,000 tested, 0.13% active;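 active means replicate mean at a twofold rise or more, about +100% in these data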;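 further: firefly luciferase made from a UUG start codon reports start codon fidelity; reporter light over untreated wells divided by growth signal over untreated wells; some hits fall short of that in this replicate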
MT1-MMP act inh: MT1-MMP (human) activation inhibition. P50281. HT1080 RFP-PRO-GFP cells, GFP/RFP ratio fluorescence, overnight; percent of plate control window, DMSO zero. GFP/RFP ratio change, % at 20 µM. 360,000 tested, 0.061% active;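 active means GFP/RFP ratio change of at least 30% with cell ATP level not reduced by more than half and red fluorescence within 50% of control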; further: strong numbers were not always called active
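Material: RFP-PRO-GFP reporter HT1080 cells. Dosing: single-point 20 µM compound, 1% DMSO. Controls: DMSO and RFP-L50D-GFP cell wells. Timing: cells overnight before dosing, compound overnight, 37 °C, 5% CO2. Measure: GFP/RFP fluorescence ratio.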
PABP FP inh: blocks human PABP binding to poly(A) RNA. fluorescence polarization. P11940. AID 2014. 290,000 tested, 1% active. inhibition, % at 35 µM;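 active means 50% or more with normal probe brightness, or confirmed in later tests; inconclusive means above 50% with abnormal brightness, or retests that disagree; inactive means below 50% or failed in later tests; about a fifth of its hits are not listed in these tables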;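 further: calls also rest on retests at 20 µM and on dose response follow-up; controls were probe without protein and protein plus probe with vehicle; some compounds called inactive have numbers as strong as hits; many hits fall short of the cut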
Rce1 inh: yeast Ras-converting enzyme inhibition; AID 2563; yeast membranes, quenched prenylated peptide cleavage fluorescence; Q03530; 290,000 tested, 0.27% active; calls only;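 active means fall in fluorescence gain of 50% or more versus controls, with final raw signal at or below 3038400; inconclusive means same 50% fall but final raw signal above 3038400; inactive means fall in fluorescence gain under 50%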;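 further: plate controls were neutral control wells for no effect and wells lacking membranes for full effect; tested at 10 µM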
Target sequence (Q03530 whole entry, looked up): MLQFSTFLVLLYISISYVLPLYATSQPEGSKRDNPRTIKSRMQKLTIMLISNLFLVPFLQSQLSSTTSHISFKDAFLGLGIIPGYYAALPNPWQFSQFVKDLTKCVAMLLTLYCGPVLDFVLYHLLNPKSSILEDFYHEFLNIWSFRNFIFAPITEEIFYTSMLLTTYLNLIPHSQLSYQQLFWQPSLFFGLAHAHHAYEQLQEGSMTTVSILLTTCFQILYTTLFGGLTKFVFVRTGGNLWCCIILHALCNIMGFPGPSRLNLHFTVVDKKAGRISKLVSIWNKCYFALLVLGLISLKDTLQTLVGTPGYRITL
eIF4H inh retest: further read-out of eIF4H inh, marked with its call; inhibition, %; compound at 20 µM; confirmation average;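 mean of two retest wells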
PABP FP inh retest: recorded beside PABP FP inh, whose call it bears; inhibition, %; compound at 20 µM; confirmation repeats;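 mean of two retest wells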
MT1-MMP act inh RFP: also measured in MT1-MMP act inh; calls as there; RFP signal change, %; measured here: RFP expression control read;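 0 = vehicle wells; hits needed this value within 50% of zero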
Numbers without * were called inactive; i = inactive; ? = inconclusive; / = no result given; [ ] = another dose, or the depositor's remark. These rows are one share of the data; count on the stated rates, not on these rows.

SMILES	CSC inhib	eIF4H inh	HIV Env fusion	UUG fidelity	MT1-MMP act inh	MT1-MMP act inh RFP	PABP FP inh	Rce1 inh	others
O=C(CSc1nnc(-c2ccccc2)n1-c1ccc(Cl)cc1)NC1CCS(=O)(=O)C1 (configuration not stated)	-4	-5	-5	-13	6	3	14	i
CC(=O)Oc1ccc(OC(C)=O)c(SCCCCCCl)c1	/	-5	-8	/	-11	-14	7	i
Cc1ccnc(NC(=O)c2ccc(NC(=O)c3ccco3)cc2)c1	1	-8	/	-5	-2	-1	-6	i
CN1CCN(c2oc(-c3ccccc3Cl)nc2S(=O)(=O)c2ccccc2)CC1	-4	2	3	-17	-3	-2	2	/
CN1CCN(C(=O)COCc2cc(-c3ccc4c(c3)OCO4)on2)CC1	-17	-4	-15	-24	2	2	0	i
CC(C)(C)C(=O)Nc1nnc(SCC(=O)NCc2cccs2)s1	0	-1	-42	-12	2	2	-5	i
O=C(/C=C/c1ccccc1)NC1CC2CCCC(C1)N2Cc1ccccc1 (configuration not stated)	-1	-6	/	/	/	/	5	i
COC(=O)C1CCN(C(=O)[C@H](C)NC(=O)C2CC(=O)N(c3ccc(F)cc3)C2)CC1 (some centres not stated)	-13	-2	-5	16	-3	0	6	i
O=C(/C=C\c1ccc2c(c1)OCO2)Nc1nnc(SCC(=O)OCc2ccccc2)s1	11	-9	20	/	/	/	3	i
O=C(NCc1ccccc1)[C@@H]1C[C@H]1[C@@H](NP(=O)(c1ccccc1)c1ccccc1)c1ccccc1	-4	7	-78	16	-5	4	-8	i
CCOC(=O)N1CCC(NS(=O)(=O)c2cc(C(=O)OC)n(C)c2)CC1	-2	-9	-13	-18	3	-2	-18	i
COc1ccc(Cl)cc1Nc1nc2ccc(C)cc2n2cnnc12	-4	-11	2	-19	4	1	-7	i
Nc1c(-c2ccc(Cl)cc2)cnc2c(-c3ccc(F)cc3)cnn12	6	0	-361	-11	3	-5	-7	i
CC(Oc1ccccc1)C(=O)Nc1ccccc1F (configuration not stated)	-9	-12	/	-16	-1	2	-3	i
COc1ccc(Cl)cc1C(=O)Nn1cnnc1	-10	-11	-27	-9	0	5	-11	i
COc1ccc(C)cc1NCC(=O)Nc1ccc(C(C)(C)C)cc1	4	-11	-16	-16	0	0	-3	i
C/C(=N\NC(=O)Cc1cccn1C)c1cccc2ccccc12	-8	-7	/	6	-13	-4	-6	i
Fc1cc(F)cc(NC(=S)NN2CCOCC2)c1	-8	-1	4	/	2	4	-5	i
O=C(c1ccco1)N1CCN(C(=O)C2CC2)CC1	/	7	5	-11	4	4	3	i
COc1ccccc1NC(=O)Nc1nc(CC(=O)Nc2ccccc2F)cs1	-6	/	-19	-6	13	-1	/	i
COc1ccc(CC(=O)NC(C)CCc2ccccc2)cc1 (configuration not stated)	/	8	-7	/	-2	-3	-4	i
CN(CC(=O)Nc1ccccc1C(F)(F)F)C(=O)C1CCN(S(=O)(=O)c2ccc3c(c2)OCCO3)CC1	-7	/	-29	/	4	0	/	i
Cc1ccc(NC(=O)CSCc2cc(=O)n3cc(C)sc3n2)cc1	3	-9	3	-17	6	5	-5	i
O=C(NNc1cc(N2CCOCC2)nc(N2CCOCC2)n1)C12CC3CC(CC(C3)C1)C2	0	6	-17	5	3	9	-15	i
COc1ccc(F)cc1S(=O)(=O)Nc1ccncc1	-5	6	-2	6	1	1	1	i
C/C(=N/NC(=O)c1ccncc1)c1ccc(NC(=O)c2ccccc2)cc1	-1	-1	-23	-27	0	2	1	i
CCOC(=O)C1=C(CS(=O)(=O)c2ccccc2)NC(=O)NC1c1cccc(OC)c1 (configuration not stated)	-1	6	-3	/	3	5	-10	/
COCc1[nH]nc2c1C(c1ccc(OC)c(OC)c1)C(C#N)=C(N)O2 (configuration not stated)	-8	-17	/	-19	4	1	-2	i
Cn1c(=O)c2c(nc(Br)n2CCSc2nnnn2-c2ccccc2)n(C)c1=O	-9	-8	-10	-3	4	2	-7	i
O=C(Oc1cccc([N+](=O)[O-])c1)c1ccc2c(=O)n3c(nc2c1)CCC3	-7	/	-24	1	3	3	/	/
CC(C)C1CCN(C(=O)C2CCC(=O)N(CCc3ccc(Cl)cc3)C2)CC1 (configuration not stated)	-1	-10	/	2	-2	-6	4	/
O=C(Nc1cccc2ccccc12)c1ccc(Br)o1	/	-3	-58	-21	0	7	0	/
CC(C)COc1nc2ccccc2nc1N1CCN(C)CC1	0	28	-4	3	-1	-1	4	i
COc1ccc(-c2c(C)nc3c(-c4ccc(F)cc4)cnn3c2N)cc1	5	-8	-128	-5	5	3	-6	i
CC1(C)NC(=O)N(CC(=O)N2CCN(S(=O)(=O)c3cc(Cl)ccc3Cl)CC2)C1=O	-12	/	-3	-4	-6	0	/	/
Cc1cc(NC(=O)COC(=O)c2ccccc2[N+](=O)[O-])no1	3	2	-14	/	1	-1	3	i
CCCCOc1ccc(C(=O)CCN2CCOCC2)cc1	-1	-2	10	/	-2	4	2	i
COc1ccc(CC(=O)OCC(=O)c2c[nH]c3ccccc23)cc1	8	/	18	6	-4	2	/	/
COC(=O)NNC(=O)C1CCC(C(=O)NNC(=O)OC)CC1 (configuration not stated)	2	-3	-1	-18	-5	0	0	i
CCOc1ccc(OCC)c(NC(=O)C2CCN(S(=O)(=O)c3c(C)[nH]c(=O)[nH]c3=O)CC2)c1	-6	-10	-2	/	-1	2	2	i
Cc1ccccc1N1CCN(S(=O)(=O)c2ccc3ccccc3c2)CC1	28	4	/	-16	6	1	0	i
Cc1[nH]c(=O)[nH]c(=O)c1/C=N/NC(=O)[C@@H](N)CC(C)C	4	8	-10	/	-2	3	2	i
O=C(O)CCCc1nc2ccccc2s1	-1	1	/	-24	4	3	0	i
CCc1cc(C(=O)N(CCCOC)c2c(N)n(Cc3ccccc3)c(=O)[nH]c2=O)sc1C	-2	/	/	/	2	2	/	i
Cc1ccc(Cn2c(=O)c3ccccc3n3c(CCC(=O)O)nnc23)cc1	0	/	8	4	2	5	/	i
COc1ccc(NC(=O)CCN2C(=O)/C(=C/c3ccc4c(c3)OCO4)SC2=S)cc1	-15	6	9	-23	-15	-9	28	i
CC1=C(C(=O)OCC2CCCO2)C(c2coc3ccc(C)cc3c2=O)C2=C(CCCC2=O)N1 (configuration not stated)	4	-1	4	-19	-1	3	5	i
CCCNC(=O)C(Cc1cccc(C#N)c1)NC(=O)c1ccc(C#N)cc1 (configuration not stated)	-19	/	25	-10	-7	-2	/	/
CC1(C(=O)NS(=O)(=O)c2ccccc2)CCN1C(=O)Cc1cc(F)ccc1F (configuration not stated)	/	/	33	-7	0	3	/	/
CCOc1ccc(-c2ncncc2-c2ccc(OC)c(OC)c2)c(O)c1	-12	9	9	-5	-2	0	15	i
CC(C)(C)c1ccc(S(=O)(=O)N2CCN(c3ccccn3)CC2)cc1	-6	-2	13	-17	0	-7	-5	i
COc1ccc(CNC(=O)CN(C(=O)c2ccc(CN3CCOCC3)o2)C2CCCC2)cc1	-9	1	-12	-10	-7	-3	-1	i
O=C(CN1C(=O)c2ccc([N+](=O)[O-])cc2C1=O)NC1CCS(=O)(=O)C1 (configuration not stated)	-2	/	-47	-11	5	5	/	i
O=[N+]([O-])c1cc(CN(CCO)CCO)ccc1O	-3	5	-12	-9	-1	3	-7	i
CC(=O)N1CCc2cc(S(=O)(=O)NC(C(=O)Nc3nc(C)cs3)C(C)C)ccc21 (configuration not stated)	0	-10	/	-10	10	1	-8	i
CC1CCc2c(sc(NC(=O)/C=C/c3cccs3)c2C(=O)O)C1 (configuration not stated)	-2	6	3	-14	-4	-6	1	i
CCN(CC)c1ccc2cc(-c3nc4ccccc4n3C)c(=O)oc2c1	40	?	-158	/	/	/	?	i
O=C(O)c1cc(S(=O)(=O)Nc2ccc3cn[nH]c3c2)ccc1Br	/	/	-28	-11	4	0	/	/
CCc1ccccc1NC(=O)Cn1nnc(C(=O)NCc2cccc(OC)c2)c1N	14	96	5	-11	-1	-6	4	i	eIF4H inh retest=-8;PABP FP inh retest=8
O=C(Oc1ccc(N(C(=O)c2ccncc2)S(=O)(=O)c2ccc(F)cc2)cc1)c1ccncc1	-3	-12	3	-9	5	-1	-4	i

Some of these compounds in order of molar mass, ascending:
SMILES	CSC inhib	eIF4H inh	HIV Env fusion	UUG fidelity	MT1-MMP act inh	MT1-MMP act inh RFP	PABP FP inh	Rce1 inh	others
CC(C)(C)c1ccc(S(=O)(=O)N2CCN(c3ccccn3)CC2)cc1	-6	-2	13	-17	0	-7	-5	i
O=C(O)c1cc(S(=O)(=O)Nc2ccc3cn[nH]c3c2)ccc1Br	/	/	-28	-11	4	0	/	/
CC(=O)N1CCc2cc(S(=O)(=O)NC(C(=O)Nc3nc(C)cs3)C(C)C)ccc21 (configuration not stated)	0	-10	/	-10	10	1	-8	i

Next section
SMILES	CSC inhib	eIF4H inh	HIV Env fusion	UUG fidelity	MT1-MMP act inh	MT1-MMP act inh RFP	PABP FP inh	Rce1 inh	others
O=C(COc1ccccc1Cl)N1CCN(c2ccc([N+](=O)[O-])c(N3CCCCC3)c2)CC1	-9	2	/	-17	3	-7	-4	i
O=C(COc1ccc(Br)cc1)NCCNC(=O)c1ccncc1	-2	4	4	-12	-1	2	0	i
O=C(C[C@H]1CC[C@@H](NC(=O)Nc2ccc3c(c2)OCO3)[C@@H](CO)O1)NCc1ccccc1	/	/	19[16.7 µM]	1	-1	2	/	/
O=C(NCCS(=O)(=O)N1CCCC1)c1ccccc1	-1	/	-10	-10	6	3	/	i
COCCCNC(=O)C[C@H]1C[C@H](C(=O)N2CCOCC2)[C@@]2(C)c3[nH]c4ccc(Cl)cc4c3CCN2C1=O	/	/	23	7	3	4	/	/
COc1ccc(N2CCN(C(=O)COC(=O)c3cccc(OC)c3O)CC2)cc1	-17	/	38	-18	4	1	/	/
COC(=O)c1ccc(CSC(=N)N)o1	1	-3	-20	-22	3	2	-6	i
O=C(CCSc1nc(-c2ccco2)cc(C(F)(F)F)n1)NCCc1ccccc1	10	-3	/	-7	-9	-7	0	/

Of the compounds above, ten have a Cl atom:
SMILES	CSC inhib	eIF4H inh	HIV Env fusion	UUG fidelity	MT1-MMP act inh	MT1-MMP act inh RFP	PABP FP inh	Rce1 inh	others
O=C(CSc1nnc(-c2ccccc2)n1-c1ccc(Cl)cc1)NC1CCS(=O)(=O)C1 (configuration not stated)	-4	-5	-5	-13	6	3	14	i
CC(=O)Oc1ccc(OC(C)=O)c(SCCCCCCl)c1	/	-5	-8	/	-11	-14	7	i
CN1CCN(c2oc(-c3ccccc3Cl)nc2S(=O)(=O)c2ccccc2)CC1	-4	2	3	-17	-3	-2	2	/
COc1ccc(Cl)cc1Nc1nc2ccc(C)cc2n2cnnc12	-4	-11	2	-19	4	1	-7	i
Nc1c(-c2ccc(Cl)cc2)cnc2c(-c3ccc(F)cc3)cnn12	6	0	-361	-11	3	-5	-7	i
COc1ccc(Cl)cc1C(=O)Nn1cnnc1	-10	-11	-27	-9	0	5	-11	i
CC(C)C1CCN(C(=O)C2CCC(=O)N(CCc3ccc(Cl)cc3)C2)CC1 (configuration not stated)	-1	-10	/	2	-2	-6	4	/
CC1(C)NC(=O)N(CC(=O)N2CCN(S(=O)(=O)c3cc(Cl)ccc3Cl)CC2)C1=O	-12	/	-3	-4	-6	0	/	/
O=C(COc1ccccc1Cl)N1CCN(c2ccc([N+](=O)[O-])c(N3CCCCC3)c2)CC1	-9	2	/	-17	3	-7	-4	i
COCCCNC(=O)C[C@H]1C[C@H](C(=O)N2CCOCC2)[C@@]2(C)c3[nH]c4ccc(Cl)cc4c3CCN2C1=O	/	/	23	7	3	4	/	/
